# Beta apoptosis: inhibitors of cytokine-induced beta cell apoptosis, primary screen, luminescence | INS-1E cytokine-induced death, ATP luminescence, 48 h; percent of positive-control rescue, neutral wells zero | protection from apoptosis, % (test concentration not listed) | actives 0.8% (n = 300,000);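 active = all replicates at 75% or more, or half of them and the mean; inconclusive = half reach 75% but not the mean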;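 note: 0% = cytokine-treated negative control wells and 100% = positive control rescue; higher means more ATP so stronger rescue from cytokine killing; wells of about 40 µL received 100 nL stock; the first replicate is given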
# Ecoli growth: E. coli growth inhibition, primary screen, OD600 | OD600 absorbance (concentration not given with the values) | Escherichia coli growth, 23 h; stronger effect = lower value | actives 0.21% (n = 330,000);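 active = OD600 absorbance below the run mean of sample wells minus 3.6 SD, in any replicate, cut at about 0.56 in these data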;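 note: stock transfer was 300 nL into about 60 µL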
# MLL AF4-AF9 inh: inhibitors of AF4 peptide binding to AF9, primary screen, biochemical, AlphaScreen, biotin-AF4 peptide, FLAG-AF9, single point; AID 651704, 2012; inhibition, % at 10 µM; actives 0.47% (n = 350,000);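 active = every replicate reaching a set inhibition limit, whatever the replicate mean, cut at about 25% in these data; inconclusive = mean inhibition reaches that limit but some replicates miss it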;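 note: 0% = plate neutral control median and 100% = total signal loss; the record names both 10 and 1 µM as test concentration; the first replicate is given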
# Target sequence (P42568 whole entry, looked up): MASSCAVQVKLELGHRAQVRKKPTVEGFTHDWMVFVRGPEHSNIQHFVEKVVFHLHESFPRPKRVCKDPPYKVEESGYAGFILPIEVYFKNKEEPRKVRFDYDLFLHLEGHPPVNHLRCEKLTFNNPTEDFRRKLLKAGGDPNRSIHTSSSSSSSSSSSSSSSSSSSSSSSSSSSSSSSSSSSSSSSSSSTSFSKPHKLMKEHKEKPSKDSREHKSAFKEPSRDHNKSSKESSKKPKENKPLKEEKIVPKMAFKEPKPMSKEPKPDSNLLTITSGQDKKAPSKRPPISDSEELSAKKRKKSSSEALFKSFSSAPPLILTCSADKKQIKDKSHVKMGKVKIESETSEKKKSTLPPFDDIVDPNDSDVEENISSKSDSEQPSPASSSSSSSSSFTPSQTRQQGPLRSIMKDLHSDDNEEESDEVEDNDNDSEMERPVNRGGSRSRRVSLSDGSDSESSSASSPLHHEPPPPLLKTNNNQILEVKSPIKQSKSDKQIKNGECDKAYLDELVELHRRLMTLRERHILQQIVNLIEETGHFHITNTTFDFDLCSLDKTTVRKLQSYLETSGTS
# A1 inh: caspase 3/7 activation in MEF A1-2A-BIM cells, primary screen, A1 inhibitor project, cell-based, luminescence, HTS. Caspase-Glo 3/7 luminescence, 3 h; percent of clofoctol response, vehicle zero. caspase activation, % (test concentration not listed). actives 0.066% (n = 330,000). AID 2462, 2010;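 active = over half of replicate activation scores above 10%, or exactly half above 10 with the replicate mean above 10; inconclusive = replicate mean below 10 yet half the replicates above 10; inactive = over half of replicates below 10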;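 note: wells of about 30 µL received 50 nL stock; many hits fall short of the cut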
# T cruzi repl: inhibitors of intracellular T. cruzi growth, primary screen, luminescence, NIH3T3 host cells | T. cruzi beta-gal in NIH3T3, 90 h | inhibition, % (test concentration not listed) | actives 1.4% (n = 300,000) | AID 1885, 2009;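 active = mean inhibition across valid replicates above about 55%, limit read from the data; inconclusive = mean below that limit but half or more replicates reach it; inactive = mean below it, under half of replicates reach it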;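 note: signal also drops with host cell toxicity which is not excluded here; 0% = plate median of DMSO wells and 100% = zero luminescence signal; higher percent means less beta-gal luminescence so fewer parasites; stock transfer was 50 nL into about 50 µL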
# UCH37 DUB inh: inhibitors of human UCH37 deubiquitinase, primary screen, biochemical, Ub-AMC cleavage, fluorescence | Ubiquitin carboxyl-terminal hydrolase isozyme L5 (Homo sapiens), Q9Y5K5 | purified proteasome/UCH37 | inhibition, % (test concentration not listed) | actives 0.33% (n = 330,000) | AID 588478, 2011;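 active = mean of two replicates above 20%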;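 note: 0% = compound-free wells with enzyme and 100% = wells lacking proteasome; stock transfer was 100 nL into about 20 µL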
# Target sequence (Q9Y5K5 whole entry, looked up): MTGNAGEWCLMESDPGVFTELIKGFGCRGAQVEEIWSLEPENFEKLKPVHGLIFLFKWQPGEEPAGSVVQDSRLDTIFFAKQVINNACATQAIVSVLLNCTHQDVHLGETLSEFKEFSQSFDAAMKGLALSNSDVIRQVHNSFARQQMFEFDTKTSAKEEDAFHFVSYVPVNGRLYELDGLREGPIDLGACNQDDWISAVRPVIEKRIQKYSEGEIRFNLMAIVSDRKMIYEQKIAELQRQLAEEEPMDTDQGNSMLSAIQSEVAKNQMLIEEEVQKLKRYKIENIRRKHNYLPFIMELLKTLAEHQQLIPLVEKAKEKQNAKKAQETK
#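 Assay system: Proteasome-bound UCH37. Buffer or medium: pH 7.4 Tris-HCl (50 mM) with ovalbumin, ATP-MgCl2, DTT. Incubation: 30 min preincubation with enzyme, 25 min cleavage at room temperature. Measured by: fluorescence, ex 355 nm, em 460 nm. Read-out basis: percent inhibition. Control set: wells without proteasome as full block, compound-free enzyme plus substrate as uninhibited.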
# FGF22 binding: binders of human FGF22 protein, primary screen, FGF22 synaptogenesis inhibitor project, biophysical, thermal shift, single point; actives 1.5% (n = 340,000); AID 651658, 2012; Fibroblast growth factor 22 (Homo sapiens), Q9HCT0; calls only at 9.99 µM; recombinant FGF22 thermal shift, SYPRO orange fluorescence; percent of sucrose octasulfate shift, DMSO zero;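 active = melting point raised past a set limit in the mean and every replicate; inconclusive = no clear call; three in four hits are not shown here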
# Target sequence (Q9HCT0 whole entry, looked up): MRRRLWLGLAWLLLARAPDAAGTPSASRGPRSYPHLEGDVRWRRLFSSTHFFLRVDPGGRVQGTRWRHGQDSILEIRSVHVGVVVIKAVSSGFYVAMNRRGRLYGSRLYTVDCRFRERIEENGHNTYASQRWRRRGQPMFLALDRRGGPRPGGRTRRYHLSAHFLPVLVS
# rRNA inh HTS: reduced GFP signal of wild-type E. coli, primary screen, bacterial rRNA inhibitor project, GFP/RFP fluorescence, OD600, single point; E. coli WT GFP vs humanized-ribosome RFP mutants, 24 h; stronger effect = lower value; DMSO median 0, no signal -100; GFP signal change (wild-type ribosome), % (test concentration not listed); actives 1.6% (n = 350,000); AID 720706, 2013;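 active = significant combined selectivity score with lowered wild-type GFP, culture density cut under 30%, mutant RFP and density less affected; inactive = any of these conditions unmet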; note: one replicate is shown; some compounds called inactive have numbers as strong as hits
# rRNA inh HTS OD600: also measured in rRNA inh HTS; calls as there; OD600 change, %; measured here: OD600 growth;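 optical density of the mix in the first replicate; 0 = DMSO median and -100 = no signal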
# rRNA inh HTS RFP: also measured in rRNA inh HTS; calls as there; RFP signal change, %; measured here: RFP humanized mutant strains;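 first replicate; 0 = DMSO median and -100 = no signal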
# Active calls of the source: *; i = inactive; u = inconclusive; x = no result given. Only part of the results is shown; count on the stated rates, not on these rows.
structure	Ecoli growth	MLL AF4-AF9 inh	rRNA inh HTS	rRNA inh HTS RFP	A1 inh	T cruzi repl	UCH37 DUB inh	Beta apoptosis	FGF22 binding	rRNA inh HTS OD600
N#C/C(=C\c1cccs1)c1nc2ccccc2[nH]1	0.72	x	x	x	-4.9	0	-15	-6	x	x
CCc1ccccc1NC(=O)Cn1nnc(-c2cccnc2)n1	0.69	x	x	x	0.7	-15	2.4	-2	x	x
CCn1c(C)nc2cc(S(=O)(=O)Nc3ccc(C)cc3)ccc21	0.66	0.0	4	0.1	0.1	-2	-1.7	4	i	-10
CCCCn1c(N)c(N(CC(C)C)C(=O)c2ccc(-n3c(C)ccc3C)cc2)c(=O)[nH]c1=O	0.63	-0.6	9	-2.1	1.7	-4	-1.6	x	x	12
O=S(=O)(c1ccc(-c2ccon2)s1)N1CCOCC1	0.68	1.6	0	4.1	1.9	-5	3.6	-7	i	12
CCOC(=O)N1CCC(=NNC(=O)c2ccc(O)cc2)CC1	0.73	x	x	x	-1.1	-9	4.3	-8	x	x
COc1ccccc1-c1cc(C(=O)Nc2ccc(F)cc2F)no1	0.74	x	x	x	1.1	1	-32	-2	x	x
COc1ccc(-c2noc(CCC(N)=O)n2)cc1OC	0.69	x	x	x	0.7	-4	-4.6	2	x	x
COc1ccc(S(=O)(=O)N2CCN(CCC(=O)Nc3ccc(F)cc3)CC2)cc1	0.69	x	x	x	0.9	-2	2.3	-2	x	x
CCCCN(Cc1ccccc1)c1ncnc2nc[nH]c12	0.71	x	x	x	0.1	15	2.9	2	x	x
Cn1cc(S(=O)(=O)N2CCCC2)cc1C(=O)NCc1ccccc1	0.69	-13	2	-1.6	x	-26	2.5	-4	i	3
O=C(CSCc1ccc(C(=O)O)cc1)Nc1ccc2ccccc2c1	0.69	-15	-12	-2.4	-0.2	-13	-1.3	-8	i	-7
Cc1ccc2c(c1)C1CN(C)CCC1N2Sc1ccccc1[N+](=O)[O-] (centres undefined)	x	35*	-23	6.0	0.3	25	x	-5	i	-26
Cc1ccc(-c2nn(C)c(=O)c3ccccc23)cc1CN1CCCCC1	0.75	-1.4	16	-0.5	-0.9	53	3.9	-5	i	7
CCOc1ccccc1NC(=O)CSc1nnc(CNC(=O)c2c(F)cccc2Cl)o1	0.65	-0.5	-1	1.0	-0.1	-8	4.4	0	i	-4
CCOC(=O)c1c(-n2cnnn2)sc(C)c1C	0.7	x	x	x	-0.4	-5	-6.0	3	x	x
COc1cccc(-c2csc(N3CCN(C(=S)NCC(C)C)CC3)n2)c1	x	2.0	-18	-3.1	0.0	6	x	3	i	-18
CCOC(=O)N1CCN(C2OC(=O)c3ccccc32)CC1 (centres undefined)	0.72	x	x	x	1.1	-3	0.3	-2	x	x
C=CCn1c(O)c(CN2CCOCC2)c(C)c(C#N)c1=O	0.73	x	x	x	-1.2	-9	-0.5	-3	x	x
Cc1cccc(OCc2nnc(SCC(=O)Nc3ccc(C)c(C)c3)o2)c1	0.72	-33	-16	4.3	0.4	-7	3.3	0	i	-11
O=C(CNS(=O)(=O)c1ccc(Br)cc1)N1CCOCC1	0.71	x	x	x	1.0	-19	2.1	-1	x	x
COc1ccc(CCNC(=S)NC(=O)c2cc(OC)c(OC)c(OC)c2)cc1OC	0.66	0.3	-1	-1.1	-0.3	2	2.0	-1	i	3
Nc1nc(-c2ccccc2)c(N=Nc2cccnc2)s1	0.74	6.4	4	0.1	u	10	7.8	-4	i	2
Cc1ccc(NC(=O)Cc2cn(C)c3ccccc23)cc1F	0.61	1.9	-21	3.6	0.8	17	1.6	0	i	-40
OCCCc1cn(Cc2ccccc2)c2ccccc12	0.6	5.5	-8	-8.3	0.7	-6	-0.3	-4	i	-15

# Additional compounds
structure	Ecoli growth	MLL AF4-AF9 inh	rRNA inh HTS	rRNA inh HTS RFP	A1 inh	T cruzi repl	UCH37 DUB inh	Beta apoptosis	FGF22 binding	rRNA inh HTS OD600
COc1cccc(C(=O)Nc2cccnc2)c1	0.66	-8.4	-2	2.5	-5.1	-17	0.0	x	i	14
Cc1cccc(C)c1NC(=O)COC(=O)CN1C(=O)C2CCCCC2C1=O (centres undefined)	0.66	-0.1	14	1.5	x	x	-0.3	x	i	16
CCCCn1nc(NC(=O)COC)c2cc3cc(OC)ccc3nc21	0.65	-31	-14	1.7	-0.1	-8	-122	8	i	-8
CCn1c(CSCc2c(Cl)cccc2Cl)n[nH]c1=S	0.7	-3.3	-39	-8.1	-1.1	7	2.4	5	i	-40
COc1ccccc1NS(=O)(=O)c1cc(NC(C)=O)ccc1N1CCCCC1	0.7	2.5	-26	-6.3	0.1	12	3.7	-12	i	-40
CCOC(=O)c1sc(=NC(=O)c2cccc(OC)c2)n(C)c1C	0.66	x	x	x	0.4	-3	-9.4	0	x	x
COc1ccc(-c2nc(NC(=O)Cn3ccc(C(F)(F)F)n3)sc2C)cc1	0.69	x	x	x	-0.1	14	-5.9	5	x	x
O=C1C=C(c2ccc3c(c2)OCO3)C[C@@H](c2ccc3c(c2)OCO3)C1	x	0.5	5	2.6	-0.5	x	1.3	-28	i	4
Cn1c(C(=O)NCc2ccco2)cc2c(=O)[nH]c3ccccc3c21	0.69	x	x	x	0.0	21	1.7	0	x	x
Cc1ccc(-n2ncc3c(=O)n(CC(=O)NCc4ccco4)cnc32)cc1	0.71	x	x	x	-0.4	3	2.9	x	x	x
Cc1ccc(S(=O)(=O)CCCS(=O)(=O)c2ccc(C)cc2)cc1	0.72	x	x	x	-1.6	-6	2.6	-4	x	x
COc1ccc(NC(=O)COc2ccccc2C)cc1S(=O)(=O)N1CCCCC1	0.71	-2.4	-14	5.9	1.8	11	1.1	1	i	-16
COC(=O)Cn1nnc(-c2cccc(OC)c2)n1	0.69	2.7	7	0.4	0.0	2	5.0	-4	i	2
CN(CC(=O)Nc1ccccc1Cl)C(=O)COC(=O)C1CC1	0.7	-20	15	-0.6	0.0	0	2.4	-8	i	16
N#CCSc1nnc(-c2c[nH]c3ccccc23)o1	0.67	0.0	-6	-2.4	-0.4	-2	-8.1	1	i	-12
Cc1ccccc1C(=O)c1cn[nH]c1-c1ccccc1O	0.67	1.3	-2	2.5	0.3	-5	1.6	-11	i	11
COc1ccc(CCNC(=O)c2cc3sc(Cl)cc3n2C)cc1OC	0.7	-4.1	-37	-1.9	0.5	19	2.9	-6	i	-58
Cc1ccc(NC(=O)c2noc(C(C)C)c2[N+](=O)[O-])cc1	0.65	-5.1	-1	-2.3	-0.1	11	4.9	0	i	-1
O=c1nc(N/N=C/c2c[nH]c3ccccc23)cn[nH]1	x	9.5	-4	1.3	-5.9	-15	x	-3	i	-1
CC(=O)Nc1ccccc1C(=O)N1CCN(Cc2ccccc2)CC1	0.68	-0.5	8	0.6	0.4	-3	4.6	-2	i	11
COC(CNc1cc(=O)oc2ccccc12)OC	0.75	x	x	x	-0.6	1	2.8	-3	x	x
CCN(CC)C1CCN(C(=O)c2cc(COc3cccc4cccnc34)on2)C1 (centres undefined)	0.69	0.5	6	0.5	x	7	-3.4	x	i	7
CCOc1nc2cnccc2n(CC(=O)Nc2ccc(C)c(C)c2)c1=O	0.71	-2.1	7	-2.6	1.1	16	1.4	-4	i	10
CCCCn1c(N)c(N(CC(C)C)C(=O)C2=NN(c3cc(C)ccc3C)C(=O)CC2)c(=O)[nH]c1=O	0.66	-1.9	8	2.4	0.1	3	1.5	6	i	14
O=C(CCN1C(=O)c2ccccc2S1(=O)=O)NCc1ccccc1	0.66	0.3	-1	-2.3	2.4	-7	-0.8	-5	i	7

# Continuation:
structure	Ecoli growth	MLL AF4-AF9 inh	rRNA inh HTS	rRNA inh HTS RFP	A1 inh	T cruzi repl	UCH37 DUB inh	Beta apoptosis	FGF22 binding	rRNA inh HTS OD600
CCCNC(=O)COc1coc(CN2CCN(Cc3ccccc3)CC2)cc1=O	0.67	1.0	5	-0.8	1.5	16	3.2	x	i	8
CC1CC(C)CN(S(=O)(=O)c2cccc3nsnc23)C1 (centres undefined)	0.7	0.3	12	2.1	-0.8	19	3.5	2	i	15
Cc1ccc(/C=N/NC(=O)c2cc3ccccc3cc2O)o1	x	12	4	-2.5	-5.8	-12	x	-2	i	9
CC(=O)c1c(C)[nH]c(C(=O)COC(=O)CCNS(=O)(=O)c2ccc(C)c(C)c2)c1C	0.68	1.1	-22	-9.7	-0.4	x	2.7	-6	i	-22
c1ccc(-n2ncc3c(NCc4ccc5c(c4)OCO5)ncnc32)cc1	0.64	1.8	x	x	-0.1	11	1.9	-4	i	x
CNc1ccc(Br)cc(C(=O)/C=C/c2cccc(Cl)c2Cl)c1=O	0.68	-4.0	-28	-4.1	x	x	7.2	x	i	-26
CCc1nc(SCC(=O)N2CCN(c3ccccc3)CC2)c2oc3ccccc3c2n1	0.68	x	x	x	0.7	35	0.0	4	x	x
Cc1ccc(S(=O)(=O)N2CCC(C(=O)Nc3ccc(N4CCOCC4)cc3)CC2)cc1C	0.7	-1.0	9	0.4	x	x	3.8	x	i	4
CN(Cc1ccccc1)S(=O)(=O)c1ccc(OCC(=O)NCc2cccnc2)cc1	0.67	0.7	1	-1.5	-0.3	15	5.8	-9	i	-9
COC(=O)c1cc(S(=O)(=O)NCc2ccc3c(c2)OCO3)c[nH]1	0.68	-0.5	-3	-2.4	-0.8	-14	7.2	-2	i	-6
CC(=O)Nc1ccc(C(=O)Nc2cccc(S(=O)(=O)NC3=NCCC3)c2)cc1	0.71	0.1	11	1.8	-0.2	-6	4.3	x	i	14
Cc1nc2c(c3c1[nH]c1ccccc13)C(O)CC(C)(C)C2 (centres undefined)	0.7	x	x	x	0.3	8	i	1	x	x
O=C(Cn1c(=O)oc2ccccc21)Nc1ccccc1Cl	0.59	3.1	10	0.1	0.3	-14	4.8	2	i	8
COc1ccc(-c2nc(-c3cccc(C)c3)no2)cc1OC	0.7	-1.9	x	x	-5.8	-3	-1.6	0	i	x
C/C(=N\Nc1cccc(C(=O)O)c1)c1ccc(Cl)s1	x	-3.2	-35	-17	-0.1	-2	x	1	i	-19
O=c1cc(N2CCCCC2)c2ccccc2o1	0.74	0.6	-14	1.0	-0.3	0	7.4	-3	i	-20
COc1cccc(OC)c1OCCCCn1cnc2ccccc2c1=O	0.67	-5.5	-10	-1.1	-1.5	-6	-2.1	1	i	-3
CC1Oc2ccccc2N(Cc2cccnc2)C1=O (centres undefined)	0.67	x	x	x	-1.6	-12	0.4	-5	x	x

# Screening results as filed in PubChem.
